GIV-Gai inh = GIV-Galpha-i interaction inhibition. P08753. Galpha-i3/FITC-GIV peptide fluorescence polarization, 90 min; stronger effect = lower value; scaled: aluminum fluoride 0%, vehicle 100%. percent of control (FP), % (test concentration not listed). 210,000 compounds, 0.42% hits. AID 1224905;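 active means replicate mean at 85% of control or lower, very high polarization wells dropped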;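 further: wells of about 15 µL received 100 nL stock; the first replicate is given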
Target sequence (P08753 whole entry, looked up): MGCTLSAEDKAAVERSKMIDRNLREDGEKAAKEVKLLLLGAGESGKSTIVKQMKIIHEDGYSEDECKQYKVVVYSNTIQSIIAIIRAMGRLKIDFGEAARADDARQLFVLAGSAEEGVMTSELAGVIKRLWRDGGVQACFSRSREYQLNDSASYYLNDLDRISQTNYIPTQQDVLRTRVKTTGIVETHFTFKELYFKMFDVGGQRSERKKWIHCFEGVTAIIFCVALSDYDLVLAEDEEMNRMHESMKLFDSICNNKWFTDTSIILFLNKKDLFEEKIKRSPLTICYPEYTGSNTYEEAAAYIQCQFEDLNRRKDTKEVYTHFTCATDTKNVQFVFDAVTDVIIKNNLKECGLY
Sa growth inh = blocks Staphylococcus aureus growth | AID 720641 | 170,000 compounds, 0.53% hits | relative growth, % (test concentration not listed) | S. aureus RN4220 growth, OD600, 20 h, 42 °C; stronger effect = lower value;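 active means growth at 42 °C up to 50% and 20 or more points under that at 30 °C, or under 10% at both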;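 further: 300 nL library stock went into each well; scaled to the means of positive and negative controls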
HCMV UL50-53 inh = disrupts HCMV UL50-UL53 complex binding. HTRF UL50-UL53 interaction, normalized percent inhibition. inhibition, % (no concentration beside the values). 190,000 compounds, 0.15% hits. AID 1918969;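 active means both replicates at 50% or more, plus weaker picks with an unusually low signal ratio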;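 further: stock transfer was 100 nL into about 20 µL; 0% = negative control wells and 100% = wells with untagged competitor protein; inactives centre near -12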
Sa growth inh second temp = second read-out of Sa growth inh, no call of its own (marks repeat the call); relative growth, %; measured here: growth at 30 °C;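 optical density after 20 h as mean of two plates; 100% = untreated growth and lower means inhibition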
An asterisk follows results filed as active; / = no result given; & = joins results of further samples.

The first 2 entries as a preview:
compound,GIV-Gai inh,Sa growth inh,Sa growth inh second temp,HCMV UL50-53 inh
CCCCN(C(=O)Nc1cccc2ccccc12)C1CCS(=O)(=O)C1 (configuration not stated),103,114,86,/
Cc1nc(COc2ccc(C(C)(C)C)cc2)ncc1S(=O)(=O)c1ccc(Cl)cc1,102,91,93,-16

This part in full, repeating the preview:
compound,GIV-Gai inh,Sa growth inh,Sa growth inh second temp,HCMV UL50-53 inh
CCCCN(C(=O)Nc1cccc2ccccc12)C1CCS(=O)(=O)C1 (configuration not stated),103,114,86,/
Cc1nc(COc2ccc(C(C)(C)C)cc2)ncc1S(=O)(=O)c1ccc(Cl)cc1,102,91,93,-16
COCCCN1CCc2nc(SCC(=O)Nc3ccc(C)c(Cl)c3)[nH]c(=O)c2C1,111,90,72,-15
Cc1ccc(Sc2c(C)nn(C(=O)c3ccco3)c2C)cc1,106,90,93,-34
CC1(C)C(=S)NC(c2ccccc2)N1O (configuration not stated),106,96,89,-10
Cc1ccc(C)c(NC(=O)Nc2ncc(-c3ccccc3)n2C)c1,101,/,/,-2
Cc1ccc(-n2c(SCC(=O)NCc3ccccc3)nc3c([nH]c4ccccc43)c2=O)cc1,103,91,92,-8
Cn1c(/C(C#N)=C(\O)COc2cc(Cl)c(Cl)cc2Cl)nc2ccccc21,/,92,91,-8
O=C(Nc1ccccc1Cl)C1CCN(c2ccccc2)C1=O (configuration not stated),109,/,/,6
C=CCN(C(=O)CN1CCN(C)CC1)c1nc(-c2c[nH]c3ccccc23)cs1,106,76,52,-15
O=C1C(Cc2cc(Cl)ccc2Cl)S/C(=N\N=C\c2ccccc2O)N1Cc1ccco1 (configuration not stated),/,92,94,-3
O=C(COc1c(-c2ccco2)oc2ccccc2c1=O)c1ccc(Br)cc1,107,104,97,/
Cc1ccc(-n2ncc(C(=O)N3CCN(C(=O)c4ccco4)CC3)c2C2CCN(C(=O)OC(C)(C)C)CC2)cc1,104,90,92,/
CCc1cc2c(Cl)ncnc2s1,/,111,84,-21
Cc1cc(-n2nc(C)cc2C)nc(NS(=O)(=O)c2ccccc2)n1,106,/,/,-3
COC(=O)c1ccc(NC(=O)N2CCN(Cc3cc(=O)n4nc(-c5ccc(C)cc5)sc4n3)CC2)cc1,105,79,91,/
O=C(NCCC(=O)N1CCN(c2ncccn2)CC1)c1ccccc1Cl,/,95,96,9
COc1cccc(OCc2nc3ccccc3n2CCOc2cccc(C)c2)c1,101,104,87,-29
O=C(c1ccc(N2CCN(c3ccccc3)CC2)nn1)N1CCc2ccccc21,105,/,/,18
O=c1c2ccccc2c(-c2ccccc2)nn1CN1CCCC1,106,97,91,-10
CCOc1cccc(CNc2ccc(NC(=O)CC)cc2)c1O,103,100,99,-6
COC(=O)c1c(C(=O)OC)c2n(c1C)CCS2,101,88,81,-31
N#C/C(=C\C(=C\N1CCOCC1)c1ccccc1)c1ccccc1,104,98,84,-29
O=C(O)CN1C(=O)/C(=C\c2ccc(C(F)(F)F)cc2)SC1=S,93,/,/,-51
O=C1c2cccc([N+](=O)[O-])c2C(=O)N1CCc1c[nH]c2ccc(OCc3ccccc3)cc12,108,/,/,-9
CCc1ccc(C(=O)CSc2nc(-c3ccccc3)nc3c2CCCC3)cc1,111,106,94,-14
CCOC(=O)c1cnc(SCC(=O)N2c3ccccc3SC3C=CC=CC32)nc1N (configuration not stated),110,121,114,-15
Cc1noc(C)c1CC(=O)Nc1cc(C(F)(F)F)ccc1NC1CCCCC1,/,103,94,-15
CCCOc1ccc(C(=O)N(Cc2ccccc2Cl)C2CCS(=O)(=O)C2)cc1 (configuration not stated),100,107,93,-8
O=C(c1cc(-c2ccccc2Cl)nc2ccccc12)N1CCN(C2CCS(=O)(=O)C2)CC1 (configuration not stated),/,87,89,-32
O=C(O)/C=C/C(=O)Nc1ccc(SC(F)(F)F)cc1,/,100,94,12
CCCc1ccc(C(=O)COc2ccc(-n3cnnn3)cc2)cc1,/,120,93,12
CCn1ccc2cc(S(=O)(=O)N3CCCC(C(=O)N4CCC(C)CC4)C3)ccc21 (configuration not stated),104,/,/,-29
CCOC(=O)c1[nH]c2ccccc2c1N=CN(C)C,104,103,69,-25
CS(=O)(=O)c1ccc(NC(=O)c2cc(=O)[nH]c3ccccc23)cc1,/,101,91,-42
COc1ccc(C(C#N)C2(C)OCCO2)cc1OC (configuration not stated),100,93,83,19
Cc1ccc(CNC(=O)c2oc3ccc(S(=O)(=O)N4CCCC(C)C4)cc3c2C)cc1 (configuration not stated),108,93,96,-9
CCn1c2ccccc2c2nc3cc(OC)c(OC)cc3nc21,103,/,/,-42
Cc1ccc2c(c1)N(C(=O)N1CCC(C(=O)NC3CCCCCC3)CC1)CC(C)O2 (configuration not stated),101,125,93,-12
OCC(O)C1OC(Nc2ccc(Cl)cc2)C(O)C1O (configuration not stated),100,101,88,/
CCC(Oc1ccc(F)cc1)C(=O)Nc1c(C(=O)c2ccc(C)cc2)oc2ccccc12 (configuration not stated),105,102,85,-15
COC(=O)C(=O)/C=C(\O)c1c(F)c(F)c(OC)c(F)c1F,105,119,97,5
COC(C(=O)Nc1ccccc1SC)c1ccccc1 (configuration not stated),106,100,105,-5
Cc1nc2cc(-n3ccc(=O)cc3)ccc2n1-c1ccccc1,/,89,102,20
CCCCn1nc(NS(=O)(=O)c2ccc(C)cc2)c2cc3cccc(C)c3nc21,110,116,91,/
COc1ccc(-c2nc3ccccc3c(=O)n2NC(=O)c2cc(Cl)ccc2OC)cc1OC,102,/,/,-18
COC(=O)CSc1n[nH]c(-c2ccccn2)n1,101,90,65,-17
CCc1ccccc1N1C(=O)N(C)c2ccccc2S1(=O)=O,108,89,47,/

3 neighbouring compounds already listed:
compound,GIV-Gai inh,Sa growth inh,Sa growth inh second temp,HCMV UL50-53 inh
Cc1ccc(CNC(=O)c2oc3ccc(S(=O)(=O)N4CCCC(C)C4)cc3c2C)cc1 (configuration not stated),108,93,96,-9
CCn1c2ccccc2c2nc3cc(OC)c(OC)cc3nc21,103,/,/,-42
Cc1ccc2c(c1)N(C(=O)N1CCC(C(=O)NC3CCCCCC3)CC1)CC(C)O2 (configuration not stated),101,125,93,-12

New compounds follow.
compound,GIV-Gai inh,Sa growth inh,Sa growth inh second temp,HCMV UL50-53 inh
CSc1nnc(-c2ccc(C(C)(C)C)cc2)o1,103,97,76,-5
O=C1OC(Nc2cccc(C(F)(F)F)c2)c2ccccc21 (configuration not stated),111,93,80,16
CN1C(=O)NC(c2ccccc2)C2=C1CC(C)(C)CC2=O (configuration not stated),109,84,91,/
CSc1ccccc1C(=O)Nc1ncn[nH]1,99,94,96,-30
NC(=S)N/N=C1/C(=O)c2cccc3cccc1c23,/,80,37,-77
CC1(C)CC(NC(=S)NC(=O)c2ccccc2)CC(C)(C)N1,/,86,93,4
COc1ccccc1N1CCN(C(=O)c2cnc(Nc3ccc(C)c(Cl)c3)c3ccccc23)CC1,110&103,85,86,0
Cc1cc(=O)[nH]c(NNC(=S)NCc2ccccc2)n1,/,91,88,-5
Cc1cccc(N2CCN(C(=O)CN3CCN(Cc4ccc(Cl)cc4)C3=O)CC2C)c1 (configuration not stated),104,97,67,/
CCOC(=O)c1nc(Nc2cccc(Cl)c2C)c2ccccc2n1,109,/,/,-9
Cc1cc(NC(=O)Nc2nnc(N(C)Cc3ccccc3)s2)ccc1Br,98,89,94,3
CC1C(=NO)C(C)C(c2ccccc2)NC1c1ccccc1 (configuration not stated),96,83,88,-31
C=CCOc1nc(-c2ccccc2)cc(-c2ccc(OC)cc2)n1,103,75,98,-7
Cc1cccc(NC(=S)NCc2ccco2)c1,101,101,84,-5
Cc1ccc2c(c1)c1c3n2CCN(CCC#N)C3CCC1 (configuration not stated),97,93,90,0
COc1cccc(N=Cc2cn(-c3ccccc3)nc2-c2cccs2)c1,/,104,69,-17
CCOC(=O)CCCCN(Cc1ccccc1F)S(=O)(=O)c1ccc(F)c(C(=O)Nc2cc(Cl)cc(Cl)c2)c1,99,97,92,/
COc1ccc2c3c([nH]c2c1)[C@@H]1C[C@@H]2C(OC(C)=O)=COC(C)C2CN1CC3 (some centres not stated),/,91,93,0
Cc1cccc(NC(=O)Cn2nc(C)n3cccc3c2=O)c1C,100,/,/,-19
Cc1cc(C)c(C#N)c(SCC(=O)Nc2ccccc2C#N)n1,101,108,87,/
COc1ccccc1CNC(=O)C1CCCN(S(=O)(=O)c2ccc3c(c2)oc(=O)n3C)C1 (configuration not stated),107,111,77,-5
CCN(CC)CCCNC(=O)c1cn(CC)c2ccc(S(=O)(=O)N3CCC(C)CC3)cc2c1=O,106,96,86,-27
CN(Cc1ccccc1)C(=O)c1cc(S(=O)(=O)N2CCCC2)cn1C,101,110,84,/
CCOc1ccc(C2CC(=O)N3CN(CCc4ccccc4)CSC3=C2C#N)cc1 (configuration not stated),105,78,76,-46

Carrying on.
SMILES	GIV-Gai inh	Sa growth inh	Sa growth inh second temp	HCMV UL50-53 inh
CCn1cc(S(=O)(=O)N2CCN(Cc3ccccc3)CC2)cn1	102	97	98	-34
COc1ccc(C2N=C(N)Nc3nc4ccccc4n32)cc1 (configuration not stated)	103	83	96	/
CN1CCc2nc3ccccc3c(C(=O)OCC(=O)NCc3ccccc3)c2C1	/	95	93	-20
Cc1ccc(C)n1-c1nnc(N2CCC(C(=O)Nc3ccccc3Br)CC2)s1	102	84	74	-37
CC(C)(C)c1cc(C(=O)NC2CC2)n(Cc2ccc(F)cc2)n1	101	91	81	-20
COc1ccc(CCNC(=O)Cn2c(=O)nc(-c3ccccc3F)c3cc(Cl)ccc32)cc1OC	106	95	86	/
Cc1onc2c1C(=O)CC(C)(C)C2	100	87	88	-17
Cn1ccc2cc(S(=O)(=O)N3CCCC(C(=O)NCc4ccc(F)cc4)C3)ccc21 (configuration not stated)	105	89	87	/
COc1ncnc2nc[nH]c12	/	95	87	0
CCc1ccc(NC(=O)Nc2ccccc2OCc2cc(=O)n3ccccc3n2)cc1	106	99	92	/
CCOC(=O)CCCc1c[nH]c2ccccc12	101	106	93	-18
COc1cccc(SCC(=O)N2CCN(c3ccccc3)CC2)c1	103	110	84	-26
Cc1ccc(C)c(N2CCN(C(c3ccccc3)c3nnc(-c4ccccc4)o3)CC2)c1 (configuration not stated)	106	102	90	-7
NCCCC(N)(C(=O)O)C(F)F (configuration not stated)	108	/	/	-17
Cc1[nH]c(SCC(=O)N2CCN(C(=O)c3ccco3)CC2)nc1Cc1ccccc1	/	105	87	-19
COc1ccccc1-c1noc(-c2ccc(NCc3ccco3)c([N+](=O)[O-])c2)n1	104	106	84	11
Cc1cccc(-c2nc(CCNC(=O)Cc3ccccc3)cs2)c1	101	82	90	/
CC(C)CNC(=O)c1cccc(S(=O)(=O)N(C)C)c1	/	98	97	-8
CCOC(=O)/C=C1\SCC(=O)N1CC(=O)Nc1cccc(C)c1C	/	87	93	-12
COCCCN1CCn2c(nc3cc(NC(=O)NC4CCCCC4)ccc32)C1	103	/	/	7
CN(C(=O)C12CCC(C)(C(=O)O1)C2(C)C)c1ccccc1 (configuration not stated)	105	107	98	-5
CCCCNC(=O)c1ccc(CS(=O)(=O)c2ccc(C)cc2)o1	104	103	91	5
Fc1ccc(CSc2nnc(-c3ccco3)o2)c(Cl)c1	/	100	97	-9
CCc1ccccc1NC(=O)CN(c1ccccc1)S(=O)(=O)c1ccsc1C(=O)OC	110	98	98	/
Cn1cc(S(=O)(=O)N2CCCCCC2)cc1C(=O)Nc1ccccc1F	98	114	80	/
O=C(Nc1cccc(Cl)c1)N1CCC(c2nc(-c3ccccc3)no2)CC1	101	/	/	-31
CCN1CCN(C2(CNC(=O)c3oc4ccc(Cl)cc4c3C)CCCCC2)CC1	98	/	/	-11
Cc1oc2ccc(OCc3ccccc3)cc2c1C(=O)Nc1ccc2c(c1)OCCO2	103	/	/	-2
CCSc1nnc2c(n1)OC(c1ccc(Cl)cc1)Nc1ccccc1-2 (configuration not stated)	78*	/	/	-7
COc1cc(/C=C(/C#N)c2nc(-c3cc4c(ccc5ccccc54)oc3=O)cs2)ccc1O	101	/	/	-21
Cc1nn(-c2ccccc2)c2c1C(C(F)(F)F)(C(F)(F)F)OC(c1ccco1)=N2	/	96	92	-26
O=S(=O)(NC1CCCc2ccccc21)c1cccs1 (configuration not stated)	96	103	73	-22
O=C(Cc1ccccc1)NC1(O)C(=O)c2ccccc2C1=O	61*	93	101	50*
O=C(Nc1cc2c(ccc3ccccc32)oc1=O)c1ccccc1	102	90	85	/
Fc1ccc(C2CCCN2Cc2cc(F)ccc2F)cc1 (configuration not stated)	103	/	/	-24
CN(CC(=O)Nc1ccccc1Cl)CC1COc2ccccc2O1 (configuration not stated)	/	102	91	-4
CCOc1ccc(Cn2c(=O)oc3ccccc32)cc1	99	94	88	2

Bioassay records from PubChem BioAssay.
